Rango-impB inh – Rango-importin beta binding inhibition. Q14974. Rango CFP/YFP FRET sensor + importin beta, 45 min. Potency, µM (titrated, usually from 92.2 µM), for the others: at the highest dose inhibition of complex formation. hit rate 0.031% among 340,000. AID 540263; active = rising FRET ratio curve, often small or poorly fitted; inconclusive = mostly compound fluorescence or quenching in the first reads; inactive = flat curves in all reads;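 note: potency is the fitted concentration of half-maximal effect; 0% = DMSO wells and 100% = buffer wells lacking importin beta; nearly all actives have a fitted effect of over 15% in size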
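FRET biosensor (snurportin 1 IBB flanked by EYFP and cerulean), 50 nM, with compound 5 min, then 0.125 microM importin beta in PBS, 1 mM DTT, 0.02% Tween-20, 0.1% BSA. CFP/YFP ratio read after 45 min at room temperature; pre-read flags interference.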
GLA inh pH 4.5 – blocks human alpha-galactosidase A at pH 4.5. P06280. purified enzyme, 4-MU-alpha-Gal fluorescence, pH 4.5. activity change, negative = inhibition, % at 105 µM. 230,000 tested, under 10 active. AID 1467; inconclusive = small, poorly fitted or top-dose-only inhibition, or a rising curve; inactive = flat fitted curve, though single readings scatter; no compound was filed as active;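 note: 0% = full activity with enzyme and -100% = basal without enzyme; dose as in the result columns while the protocol names 77 µM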
Target sequence (P06280 whole entry, looked up): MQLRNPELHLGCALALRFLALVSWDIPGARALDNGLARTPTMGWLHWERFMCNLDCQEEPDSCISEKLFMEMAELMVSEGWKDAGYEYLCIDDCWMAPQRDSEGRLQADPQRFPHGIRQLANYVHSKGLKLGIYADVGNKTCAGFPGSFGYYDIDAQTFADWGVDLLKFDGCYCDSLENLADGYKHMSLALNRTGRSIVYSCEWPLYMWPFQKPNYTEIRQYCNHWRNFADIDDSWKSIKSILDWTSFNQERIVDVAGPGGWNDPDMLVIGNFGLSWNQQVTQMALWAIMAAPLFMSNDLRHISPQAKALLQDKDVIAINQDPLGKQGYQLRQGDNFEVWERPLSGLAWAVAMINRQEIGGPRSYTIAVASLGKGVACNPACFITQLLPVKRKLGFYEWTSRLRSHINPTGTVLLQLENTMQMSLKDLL
miR-21 reporter – raises the signal of a miR-21 reporter | 340,000 tested, under 10 active | Potency, µM (series often up to 38.3 µM), for inactives: at the highest dose reporter change, positive = more light | HeLa miR-21 FLuc reporter, luciferase, 48 h; active = well fitted rising curve with a large enough effect; inconclusive = small, poorly fitted or top-dose-only effect; inactive = no such curve, though single readings can be large or run the other way;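 note: % of control where 0% means no effect; miR-21 action dims this reporter so a rising signal means less miR-21 action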
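HeLa cells stably expressing CMV-driven firefly luciferase with a downstream miR-21 binding sequence, endogenously expressing miR-21, were treated with titrations (up to about 40uM final) for 48 hours at 37 degree Celsius. Luciferase luminescence was read after lysis.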
Rango dissoc inh – inhibition of RanGTP-driven Rango-importin beta dissociation; O95149+P62826; Biochemical FRET Rango-importin beta, RanGTP-induced dissociation; Potency, µM (series often up to 46.1 µM), for the others: at the highest dose activity change, negative = inhibition; hit rate 0.071% among 340,000; AID 540253; active means falling FRET ratio curve, often poorly fitted, with flat reads before Ran was added; inconclusive means other falling curves, or compound fluorescence or quenching; inactive means flat or rising ratio curve;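 note: potency is the fitted concentration of half-maximal effect; % of control where 0% means no effect; nearly all actives have a fitted effect of over 45% in size; -100% = wells without RanGTP and RCC1; the record marks most hits as doubtful in a second field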
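Two FRET readings bracket the reaction: one 5 min after compound meets Rango–importin beta, another 45 min after RanGTP-RCC1 (0.6 uM Ran, 0.2 uM RCC1, 2 mM GTP) is added. Only the second defines inhibition.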
The depositor's hits bear a star; ? = inconclusive; . = not tested or not shown; & = joins results of further samples; [ ] = another dose, or the depositor's remark. This is a subset; rates above refer to the full screens.

SMILES | Rango-impB inh | GLA inh pH 4.5 | miR-21 reporter | Rango dissoc inh
O=C(/C=C/c1ccccc1)Nc1nc(-c2ccncc2)cs1 | 2.1% | -1.9 | -1.4% | -2.3%
CNc1nc2c(c(=O)[nH]c(=O)n2C)n1CCOC | . | -8.4 | -2.9% | .
CSc1ccc(S(=O)(=O)N2CC(=O)Nc3ccccc32)cc1 | ? | . | -5.3% | -20.1%
CCOC(=O)Cn1cc(C(=O)C2CC2)c2ccccc21 | -5.7% | 1.2 | -3.1% | -3.6%
CC1CN(C(=O)CN2C(=O)c3ccccc3C2=O)CC(C)O1 (centres undefined) | 0.3% | -1.5 | 0.8% | -6.7%
COc1ccc(-c2nnn(CC(=O)NCCc3ccc(OC)c(OC)c3)n2)cc1 | 0.3% | -7.6 | 0.1% | 10.7%
CN(C)NC1=CC(=[N+]2CCCC2)CC(C)(C)C1 | 0.7% | 11.5 | -3.9% | 0.8%
COC(=O)c1cc(NS(=O)(=O)c2ccc(N3CCOCC3)c(NC(C)=O)c2)cc(C(=O)OC)c1 | 3.7% | -1.8 | -3.4% | 7.8%
COc1cc2c(cc1OC)/C(=C/C(=O)c1ccccc1)NCC2 | ? | . | -48.1% | ?
COc1cc(CN(C(C)=O)c2ccccc2C(=O)O)ccc1[N+](=O)[O-] | -0.9% | . | . | -0.6%
CCN(CC)C(=O)CN1C(=O)/C(=C/c2ccccc2)SC1=S | 1.0% | 0.5 | -0.1% | ?
CCN(CC(=O)Nc1ccccc1C(F)(F)F)C(=O)c1ccc(-n2nc(C)c(CCC(=O)OC)c2C)cc1 | -1.7% | . | . | -2.0%
Cn1cc([C@@H]2C[C@H]3CN(Cc4cccc(Cl)c4)C(=O)[C@]34CCCN24)c(-c2ccccc2)n1 | -0.2% | -1.2 | 3.1% | 2.2%
COc1ccc(N2C(=O)CC(Sc3nccc(C)n3)C2=O)cc1 (centres undefined) | -1.1% | -1.1 | -0.2% | -7.3%
CC(=NNC(=O)c1ccncc1)c1ccc(O)cc1O | ? | . | . | ?
O=C(N/C(=C/c1cccc([N+](=O)[O-])c1)C(=O)N1CCOCC1)c1ccc(Br)cc1 | 4.8% | . | 0.4% | -9.0%
COc1ccc2c(c1)c(=O)c(C(=O)c1ccccc1)cn2Cc1ccccc1 | 0.3% | 3.1 | 8.9% | 0.2%
C=CCNC(=S)NNc1nc(Nc2ccccc2)nc(N2CCCCC2)n1 | 6.3% | -8.9 | 6.7% | 34.8%
Nc1c(S(=O)(=O)c2ccccc2)c2nc3ccccc3nc2n1/N=C/c1ccco1 | ? | -0.4 | -2.7% | ?
CC(C)CNC(=O)[C@H]1N2C(=O)c3ccccc3C2SC1(C)C (some centres undefined) | 4.6% | . | -0.7% | 13.6%
Cc1ccc(NS(=O)(=O)c2ccccc2)c([N+](=O)[O-])c1 | -4.1% | . | . | 3.5%
COc1cccc(CNc2nc3nc(C)c(Cl)c(C)n3n2)c1 | ? | 1.3 | -68.8% | -0.7%
COc1cc(CCC(=O)OCC(=O)c2ccc[nH]2)cc(OC)c1OC | -0.3% | . | . | 3.5%
CC(C1CC2CCC1C2)n1c(-c2ccco2)n[nH]c1=S (centres undefined) | 4.3% | 7.6 | 0.4% | 0.5%
Cc1ccc2nsnc2c1NC(=S)NC(=O)c1ccco1 | 3.3% | -4.9 | -8.3% | -0.5%
COC(=O)C(Cc1ccccc1)P(=O)(c1ccccc1)c1ccccc1 (centres undefined) | -0.1% | -0.7 | -4.0% | -10.7%
CC(=O)Nc1ccc(S(=O)(=O)N(c2cccnc2)S(=O)(=O)c2ccc(NC(C)=O)cc2)cc1 | -2.2% | -16.7 | -7.2% | 18.3%
CCN1C(=O)c2cccc3c(S(=O)(=O)NCc4ccccn4)ccc1c23 | ? | 5.5 | 14.4% | ?
COc1ccc(Cl)cc1C=CC=Nc1ccccc1O | 0.0% | . | . | -22.1%
Cc1ccc(NC(=O)COC(=O)c2csc3c2CCC(C)C3)cc1S(=O)(=O)N1CCCCC1 (centres undefined) | -3.4% | -16.0 | 15.1% | -7.5%

2 entries from above, with values ahead of the structure.
Rango-impB inh	GLA inh pH 4.5	miR-21 reporter	Rango dissoc inh	Compound
0.3%	3.1	8.9%	0.2%	COc1ccc2c(c1)c(=O)c(C(=O)c1ccccc1)cn2Cc1ccccc1
6.3%	-8.9	6.7%	34.8%	C=CCNC(=S)NNc1nc(Nc2ccccc2)nc(N2CCCCC2)n1

(cont.)
SMILES | Rango-impB inh | GLA inh pH 4.5 | miR-21 reporter | Rango dissoc inh
CN(Cc1nc(-c2cnccn2)no1)Cc1cccc2ccccc12 | 0.4% | -1.1 | -6.5% | 13.3%
CC(C)C(=O)N1CCN(CCN=CC2=C(O)CC(c3ccco3)CC2=O)CC1 (centres undefined) | -1.6%&1.6% | 2.8 | -1.7% | -17.4%&-19.4%
COc1ccccc1C(=O)Nc1ccc(S(=O)(=O)N(C)c2ccccc2)cc1 | 0.1% | . | . | 8.6%
CCc1ccc(C(=O)CN2C(=O)NC3(CCc4ccccc43)C2=O)cc1 (centres undefined) | -6.7% | . | . | 24.6%
C=CCn1c(SCC(=O)Nc2nnc(C)s2)nnc1C1CC1 | 2.1% | . | -1.3% | 5.8%
Cc1cc(=O)[nH]c(SCC(=O)Nc2ccc(S(=O)(=O)N3CCOCC3)cc2)n1 | 3.3% | 5.3 | 0.9% | -12.0%
O=C(O)c1cccc(N2CCCC2=O)c1 | ? | 0.3 | -6.6% | 1.6%
COc1cc(S(=O)(=O)NCc2ccncc2)c(OC)cc1C | 3.9% | . | 15.4% | -10.9%
Cc1cc(SC2CCOC2=O)nc2ccccc12 (centres undefined) | 0.2% | 2.3 | 1.0% | 26.3%
O=C(NCc1cccnc1)c1cnc2n(c1=O)CCS2 | 0.0% | -5.7 | -2.7% | 4.9%
Cc1cc(=O)[nH]c(SCC(=O)C23CC4CC(CC(C4)C2)C3)c1C#N | 2.4% | 4.3 | 1.9% | 4.2%
CCNC(=S)N1CCC(c2nc3cc(C)c(C)cc3[nH]2)CC1 | -0.1% | 1.6 | -10.0% | 22.3%
Cc1ccc(-n2c(C)c(C)c3c(NCCO)ncnc32)cc1 | 1.0% | . | -75.2% | 5.1%
CCCN=C(Nc1ccc(Cl)cc1)c1cccnc1 | 1.0% | 8.2 | -13.7% | -2.1%
CCOC(=O)c1c(C)[nH]c(C(=O)CSc2ccccc2)c1C | -1.0% | 3.9 | -20.2% | 0.7%
CCOc1ccc(NC(=O)c2cccc(OC(=S)N3CCC(C)CC3)c2)cc1 | -0.1% | -23.6 | -8.7% | -0.7%
Cn1cnnc1SCC(=O)Nc1sc2c(c1C#N)CCCCC2 | -4.8% | 8.9 | -22.1% | -1.7%
Oc1ccc(-c2onc(C(F)(F)F)c2-c2cscn2)c(O)c1 | 0.6% | -0.5 | 3.4% | 0.2%
Cc1ccc(-n2c(=O)c(C#N)cc3c(=O)n4ccccc4nc32)cc1 | ? | ? | -4.6% | ?
Cc1ccc(/C=C(\C#N)C(=O)NCc2ccco2)o1 | -0.6% | -19.2[21.1 µM] | -37.5% | 0.3%
O=C(CC(c1ccccc1)c1ccccc1)NCC(O)c1ccc([N+](=O)[O-])cc1 (centres undefined) | 4.3% | . | 7.7% | 20.8%
CC(=O)Nc1cc2c(cc1[N+](=O)[O-])-c1ccccc1C2=NO | 3.9% | . | . | 1.1%
CC(=O)N[C@H](Cc1c[nH]c2ccccc12)C(=O)O | -0.2% | . | . | -0.8%
COc1ccccc1NC(=O)Cn1c(CCC(=O)O)ccc1-c1ccc(C)cc1 | -1.8% | -0.2[21.1 µM] | -6.0% | 2.5%
Cc1cc(C)c(C)c(S(=O)(=O)N2CCC(C(=O)N(C)Cc3nc4ccccc4c(=O)[nH]3)CC2)c1C | 2.6% | . | . | 0.2%
CCc1ccc(NS(=O)(=O)c2cccs2)cc1 | -6.3% | -2.9 | -13.4% | 3.2%
COc1ccc(-c2cc(C(F)F)n3ncc(C(=O)N4CCCc5ccccc54)c3n2)cc1 | 2.4% | -2.6 | -12.5% | -2.0%
O=C1c2ccccc2C(=O)N1c1ncccn1 | -1.1% | -6.8 | -4.1% | 4.9%
Cc1ccc(-n2c(C)cc(/C([O-])=C(/C(=S)Nc3ccc(F)c(Cl)c3)[n+]3ccccc3)c2C)cc1 | ? | -12.3 | -11.7% | -16.6%
O=C(NCCN1C(=O)S/C(=C\c2ccc(OC(F)F)cc2)C1=O)c1cnccn1 | -2.3% | -3.6 | 17.6% | 17.2%
COc1cccc(-c2csc(N3CCN(C(=O)Nc4ccccc4OC)CC3)n2)c1 | 3.3% | -6.0 | -15.6% | -0.6%
CCOc1ccc(CC(=O)Nc2ccc(S(=O)(=O)Nc3cc(C)on3)cc2)cc1OCC | -4.4% | 6.3 | -13.4% | -4.7%
Cc1ccc(CNC(=O)CSc2ccc(-c3ccco3)nn2)cc1 | -0.8% | 3.0 | -10.6% | 2.7%
Cc1cccc(C(C(C(=O)c2ccccc2)N2CCOCC2)N2CCOCC2)c1 (centres undefined) | -2.1% | . | . | -13.3%
Cc1nc(-c2ccc3c(c2)CCC(=O)N3)cs1 | 0.1% | 6.8 | -69.1% | -17.9%
O=C1C2ON(c3ccc(Cl)cc3)C(c3ccco3)C2C(=O)N1c1ccccc1 (centres undefined) | 5.9% | -7.2 | -2.7% | 10.8%
COc1ccc(CN(C(=O)c2ccc(-c3ccccc3)[nH]2)C(C(=O)NCC2CCCO2)c2ccc(C)o2)cc1 (centres undefined) | 2.6% | -3.6 | 6.5% | -7.2%
COc1ccc(OCc2cc(C(=O)NCCCc3ccccc3)no2)c(Cl)c1 | -4.0% | . | 7.7% | -0.7%
O=C(CCc1ccccc1)Nc1ccccc1[N+](=O)[O-] | 3.8% | -1.4 | -64.7% | -10.0%
C#CC[N+](C)(C)CC#Cc1ccc(Cl)cc1 | 0.4% | -0.8 | -3.3% | 11.1%
CC(=O)n1nc(-c2ccccc2)nc1NCc1ccc(F)cc1 | -2.2% | -6.3 | -29.9% | -16.1%
CCOc1ccccc1NC(=O)C1CCCN(S(=O)(=O)c2ccc3c(c2)C(C)(C)C(=O)N3C)C1 (centres undefined) | 0.3% | . | 11.0% | 11.6%
COc1ccc(C2/C(=C(/O)c3cnn(-c4ccccc4)c3C)C(=O)C(=O)N2CCN(C)C)cc1OC (centres undefined) | -3.7% | . | . | -7.7%
O=C(C1CCCO1)N1CCN(C(=S)Nc2ccc(Cl)cc2)CC1 (centres undefined) | -2.0% | -2.9 | -5.0% | -10.9%
CCOP(=O)(Nc1ccc2oc(=O)c3ccccc3c2c1)OCC | -1.5% | 3.3 | -9.1% | -10.0%
O=C(Nc1ccc(S(=O)(=O)N2CCOCC2)cc1)c1ccc(=O)[nH]c1 | -2.9% | -3.8 | 0.4% | -2.1%
COc1ccc2c(c1)C(C)=CC(C)(C)N2C(=O)CN1C(=O)CCC1=O | 2.3% | -0.6 | -7.8% | -7.0%
Cc1cc(CSc2ccccc2)ccc1NC(=O)COc1ccccc1 | 4.6% | 5.1 | -4.3% | 6.0%
CN1CCC[C@@H]1CCO[C@](C)(c1ccccc1)c1ccc(Cl)cc1 | 3.3% | -12.6&5.2 | . | 9.6%
CC1CC(C)CN(C(=O)Cn2c(SCC(=O)N3CCc4ccccc4C3)nc3ccccc32)C1 (centres undefined) | ? | 4.4 | -11.4% | -5.4%

More records
SMILES | Rango-impB inh | GLA inh pH 4.5 | miR-21 reporter | Rango dissoc inh
COc1ccc(OCC(=O)OCC(=O)Nc2ccc(S(=O)(=O)N3CCCCC3)cc2)cc1 | -2.1% | -13.0 | -1.6% | -0.8%
COc1ccc(-c2nnc(Nc3ccc(S(=O)(=O)Nc4nccs4)cc3)c3ccccc23)cc1 | -0.5% | -7.3 | -8.7% | 26.4%
CCOC(=O)C(NC(C)=O)C(=O)Nc1ccc(C)cc1C (centres undefined) | -0.3% | -3.0 | -0.4% | -2.6%
CCOC(=O)[C@H]1[C@H]2COc3cc(OC)ccc3[C@@H]2N2C(=O)c3cc(OC)c(OC)cc3NC(=O)[C@@]12C | 4.9% | . | . | 24.2%
Cc1ccc(OCC(=O)NNC(=O)C2CCN(c3nccc(C)n3)CC2)cc1 | -2.0% | 11.8 | -5.8% | -6.4%

Screening results (PubChem BioAssay)
